MgrA DNA FP: alters Staphylococcus aureus MgrA binding to DNA. fluorescence polarization. inhibition, %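 (about 10 µg/mL by stock and volumes)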. 84,000 tested, 0.13% active. AID 602314;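 active means above 50% in either of two replicates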;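 further: 0% = protein plus DNA without compound and 100% = DNA alone without protein; higher means less MgrA bound to DNA so lower polarization; one replicate is shown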
S aureus helic: blocks Staphylococcus aureus DNA helicase; purified S. aureus helicase, fluorescence unwinding assay; about half of the hits fall short of the stated cut; 120,000 tested, 0.05% active; inhibition, %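 (tested at about 80 µM)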;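 active means both duplicates at 50% or more, or one of them with a favoured structure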;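 further: 0% = mean of negative control wells and 100% = mean of positive control wells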
* hit, by the source's call; . = not tested or not shown. Only part of the results is shown, so the mix of outcomes need not match the whole.

SMILES	S aureus helic	MgrA DNA FP
COc1ccc(NC(=O)C2CCC(=O)N2C(=O)OCc2ccccc2)cc1 (stereo unspecified)	-2	-0.7
Nc1ccccc1Sc1ccc(C(=O)c2ccccc2C(=O)O)cc1[N+](=O)[O-]	.	1.5
CCOC(=O)c1ccc(NCc2nc3ccccc3[nH]2)cc1	6	.
O=C(CSc1n[nH]c(-c2cccs2)n1)N1CCCc2ccccc21	-7	.
Cn1ccsc1=NC(=O)c1ccccc1OC(F)F	-7	.
O=C(c1ccco1)N1CCN(C(=O)c2cc(F)c(F)c(F)c2F)CC1	-20	-2.3
CCCCCn1c(=N)c(C#N)cc2c(=O)n3ccccc3nc21	-15	.
CCOC(=O)CCc1cc(N=Cc2cc(Br)ccc2O)c(O)c(N=Cc2cc(Br)ccc2O)c1	.	20
Cc1noc(NS(=O)(=O)c2ccc(N3CC(O)=C(c4ccccc4)C3=N)cc2)c1C	17	.
O=c1c2cc(NS(=O)(=O)c3ccc(Cl)c(Cl)c3)ccc2oc2ncccc12	.	0.0
CCc1ccc(NC(=O)CCN2C(=O)C3C4C=CC(C4)C3C2=O)cc1 (stereo unspecified)	-2	.
CC1Cc2cc(S(=O)(=O)NC3CCCC3)ccc2N1C(=O)C1CC1 (stereo unspecified)	-25	.
NC(=O)C1CCCCN1C(=S)Nc1ccc(OC(F)F)cc1 (stereo unspecified)	-10	.
CC(NC(=O)CCN1C(=O)NC2(CCCC2)C1=O)c1cc(F)c(Cl)cc1Cl (stereo unspecified)	14	.
N#Cc1ccc(Oc2ccc(C(F)(F)F)cc2[N+](=O)[O-])cc1	.	-0.2
CN(C)CCN(Cc1ccco1)C(=O)c1c2c(nc3ccccc13)C(=O)N(C1CCCCC1)C2	7	.
CCOC(=O)/C(=N\O)c1c(C)nn(-c2ccc(F)cc2)c1C	-2	.
Cc1sc(NC(=O)c2ccco2)c(C2=CC(=O)N(c3ccccc3)C2=O)c1C	25	.
Cc1cc(C)c2cc(C(=O)Nc3ccccc3Cl)[nH]c2c1	.	-1.6
O=C(NCC(c1cccs1)S(=O)(=O)c1cccs1)NC1CCCCC1 (stereo unspecified)	-9	.
Cc1ccc(-n2[nH]c(C)cc2=O)cc1	.	-2.7
CCN(C(=O)CCN1C(=O)c2ccccc2C1=O)c1ccccc1	21	0.4
CCN1CCN(CCCNC(=O)c2n[nH]c(=O)c3ccccc23)CC1	15	2.8
Cc1[nH]oc(=O)c1C=Nc1ccccc1	.	0.2
O=C(O)C1Sc2[nH]c(=O)sc2C2c3ccc(O)cc3OC(=O)C12 (stereo unspecified)	5	2.0
O=C(COc1ccccc1)Nc1cccc(C(F)(F)F)c1	4	2.8
CCOC(=O)c1oc2ccccc2c1NC(=O)/C=C/c1ccccc1	-20	.
COC(=O)CNC(c1ccccc1)c1cc(C)ccc1N (stereo unspecified)	-8	.
CC(C)(C)NC(=O)Nc1ccccc1SCCC#N	1	.
CC(=O)Oc1ccccc1-c1ccccc1	3	2.3
Cc1nc(-c2ccc(S(=O)(=O)N3CCCN(c4nc5ccc(Cl)cc5s4)CC3)s2)cs1	.	-0.3
CCOC(=O)c1ccc(NC(=O)C(CC)Sc2nc(N)cc(N)n2)cc1 (stereo unspecified)	-13	1.0
CC(C)C(=O)NC1=NC2C(N=CN2C2CC(O)C(CO)O2)C(=O)N1 (stereo unspecified)	-3	-0.4
CCCc1nn(-c2ccccc2F)c2c1C(=O)CC(C)(C)C2	9	.
Nc1ccc(CC(C(=O)O)c2ccccc2)cc1 (stereo unspecified)	19	.
N#CCC(=O)NNC(=S)Nc1ccc(F)cc1	.	0.4
O=c1sc2ccccc2n1CCc1ccccc1	2	-1.6
CC(C)NS(=O)(=O)c1ccc(CCC(=O)Nc2ccc3c(c2)OCCO3)cc1	4	-1.9
CC(=O)Nc1ccc(S(=O)(=O)N2CCSC2)cc1	-17	.
CSc1nc(C)cc(OCCNC(=O)COc2ccc(Cl)cc2C)n1	-7	.
COc1ccc(Br)cc1CNC(=O)c1cc(-c2ccccc2)n(C)c1C	3	-3.8
Cc1cc(C)c2cccc(NC(=O)COc3ccc4oc5c(c4c3)CCCC5)c2n1	5	0.1
COc1cc2c(cc1OC)CN(CC(=O)Nc1ccc3c(c1)OC(F)(F)O3)CC2	12	.
C=CCNC(=S)Nc1cccc(NC(=O)CC(NCc2ccco2)C(=O)O)c1 (stereo unspecified)	6	.
Nc1ncc(Br)cc1[N+](=O)[O-]	.	-1.9
Cc1c(C#N)c(NC(=O)CSc2ccc(F)c(Cl)c2)n(Cc2ccco2)c1C	4	.
Cn1c(SCC(=O)NC(=O)c2ccc(OC(F)F)cc2)nc2ccccc21	5	.
CC1(C)CC(=O)c2cc(OCC(=O)NCCN3CCOCC3)ccc2O1	-8	-0.2
COC(=O)c1ccc(/C=C2/SC(=Nc3ccccc3Cl)NC2=O)cc1	.	-0.9
CCOC(=O)C1CCN(C(=O)Cn2cccc2C(=O)c2ccccc2)CC1	16	.

(list continues)
SMILES	S aureus helic	MgrA DNA FP
CCOC(=O)c1oc2ccccc2c1CSc1nnc(-c2ccco2)o1	-4	.
CCC(C(=O)O)n1nnc(-c2ccc(OCc3ccccc3)c(OC)c2)n1 (stereo unspecified)	3	-4.4
O=C(/C=C/c1ccccc1)N1CCC(C(=O)N2CCN(C3CCS(=O)(=O)C3)CC2)CC1 (stereo unspecified)	20	.
Cc1ccc(C(=S)N2CCOCC2)cc1	-1	12
Cc1ccn(CCC(=O)N(C)C(C)CCc2ccco2)n1 (stereo unspecified)	8	.
CN(C)S(=O)(=O)n1cc(/C=C(\NC(=O)c2ccccc2)C(=O)NCc2ccco2)c2ccccc21	10	3.2
C=CCn1c(=S)sc2c(SCc3ccc(F)cc3)ncnc21	4	2.5
O=C(O)c1cn(-c2ccc(F)cc2)c2cc(N3CCNCC3)c(F)cc2c1=O	.	4.5
COc1ccc(C2=NN(CC(=O)NCc3ccc4c(c3)OCO4)C(=O)CC2)cc1	7	4.6
COc1ccc(CC(=O)Nc2cccc(-c3ccc4nncn4n3)c2)cc1	6	.
COc1ccc(Br)cc1CN(C)C(=O)c1ccno1	-11	.
Cc1ccc(-c2csc(CC(N)=O)n2)cc1	-1	-3.0
CN1C(=CC#N)N(C)c2ccccc21	-40	.
CCCc1c(SC(=O)N(C)C)ccc2c(C)cc(=O)oc12	.	-1.3
COc1ccc(OC(C)C(=O)Nc2ncn[nH]2)cc1 (stereo unspecified)	-11	.
CC(C)c1ccc(-c2c3c(nc4ncnn24)-c2ccccc2C3=O)cc1	-42	.
S=C(Nc1ccccc1)N1CCn2cccc2C1c1cccs1 (stereo unspecified)	-3	.
CCCCC#Cc1cncc(C(=O)O)c1	-19	.
CCC(CC)C(=O)Nc1nc(-c2ccccc2)cs1	22	.
CC(OC(=O)c1nsc(Cl)c1Cl)C(=O)NCc1cccs1 (stereo unspecified)	-2	2.0
O=C(COC(=O)c1ccccc1)NCC1CCCO1 (stereo unspecified)	-18	2.0
Cn1c(O)c(C2=c3ccccc3=NC2=O)c2ccccc21	8	7.6
Cc1cc(C)c(C)c(I)c1C	.	3.0
Clc1cccc(Cl)c1-c1noc(-c2ccno2)n1	.	-1.9
CCOC(=O)c1c(NC(=O)c2ccccc2)sc2c1CCCC2	2	-2.9
CCS(=O)(=O)c1ccc(O)c(N=Cc2ccc[nH]2)c1	-12	-0.6
CCCc1c(C)c2c(OCC)cc(OCC)cc2oc1=O	14	.
COC(=O)CC1C(=O)NCCN1C(=O)c1ccc(Cl)cc1 (stereo unspecified)	-2	.
CC(C)(C)C(=O)Nc1cccc(-c2cc(-c3c(Cl)cccc3Cl)no2)c1	.	4.5
CN1c2ccccc2-c2nc(SCC(=O)c3ccc4c(c3)OCO4)ncc2S1(=O)=O	-3	.
N#Cc1c(N2CCCC(O)C2)nc(N)c2c(N)nc3c(c12)CC(=O)N3C12CC3CC(CC(C3)C1)C2 (stereo unspecified)	-4	.
CC(=O)Nc1ccc(OC(=O)c2cccs2)cc1	.	0.5
COc1cc(OC)cc(C(=O)NCC(=O)N2CC(C)CC(C)C2)c1 (stereo unspecified)	-8	.
Cc1ccccc1C(=O)Oc1ccc(C#N)cc1	7	-1.5
N=c1occ(C(=O)c2cc(Cl)ccc2O)cc1C(=O)NC1CC1	-8	.
CC1CCN(Cc2ccc(NC(=O)Nc3cn(C)c(=O)c4ccccc34)cc2)CC1	-2	-2.4
Cc1csc(Nc2ccccc2)[n+]1C	19	.
c1ccc(-c2nc(-c3ccc(-c4ccon4)s3)no2)cc1	.	-0.9
Cn1c(-c2ccccc2)c(/C=N/NC(=O)c2cccs2)c2ccccc21	16	.
O=C1NCCc2c(OCC(=O)N3CCCc4ccccc43)cccc21	-11	.
CCOC(=O)Cc1csc2nc(-c3ccccc3)nn12	.	1.4
O=C(Nc1ccccc1C(F)(F)F)c1ccccc1Cl	-11	0.9
COC(=O)c1ccccc1NC1=NCCS1	.	-9.3
Cc1c(C)c(C)c(CSC2=[N+](Cc3ccccc3)CCN2)c(C)c1C	.	-1.2
CCc1cc2c(=O)c(-c3ccc(F)cc3)c(C)oc2cc1OCC(=O)O	17	.
CCn1c(-c2ccc3c(c2)OCCO3)cnc1SC(C)C(=O)NC(N)=O (stereo unspecified)	0	.
NC(=O)CSc1nnnn1-c1cccnc1	2	4.0
CC(CO)(CO)NC(=O)Cc1cc(=O)[nH]c(=O)[nH]1	19	.
O=C(c1ccco1)N1CCN(C(=O)C2CC(=O)N(c3ccccc3)C2)CC1 (stereo unspecified)	10	-0.5
NC(N)=NS(=O)(=O)Cc1ccccc1	0	.

Compound profiles, as listed above. Order of values: S aureus helic, MgrA DNA FP
CSc1nc(C)cc(OCCNC(=O)COc2ccc(Cl)cc2C)n1 is entered as -7, .
O=C1NCCc2c(OCC(=O)N3CCCc4ccccc43)cccc21 is entered as -11, .
CC(C)NS(=O)(=O)c1ccc(CCC(=O)Nc2ccc3c(c2)OCCO3)cc1 is entered as 4, -1.9
CC1Cc2cc(S(=O)(=O)NC3CCCC3)ccc2N1C(=O)C1CC1 (stereo unspecified) is entered as -25, .
CCS(=O)(=O)c1ccc(O)c(N=Cc2ccc[nH]2)c1 is entered as -12, -0.6

The listing continues:
SMILES	S aureus helic	MgrA DNA FP
CC(C)Oc1ccc(C(=O)NC(=S)N2CCOCC2)cc1	-7	0.5
O=C(c1ccc(Cl)cc1)N(Cc1ccccc1)c1ccccn1	-10	-0.8
CCCc1nc2ccccc2c(C(=O)OC2CCOC2=O)c1CC (stereo unspecified)	18	.
COc1ccc(-c2nc3cc(NC(=O)c4cc5ccccc5cc4OC)ccc3o2)cc1	.	-0.1
COc1ccc2c(c1)c(=O)c(S(=O)(=O)c1ccccc1)cn2Cc1ccccc1	18	-1.2
CC(=O)Oc1cc2c3c(c(=O)oc2cc1C)CCCC3	-14	0.8
c1cncc(-c2n[nH]c(-c3cccnc3)n2)c1	.	-1.4
O=C(O)c1cccc(Cl)n1	-1	-1.1
OCCn1c(-c2ccc(F)cc2)csc1=Nc1cccc(Cl)c1	-27	.
O=C1CCC(=O)N1Oc1ncc(C(F)(F)F)cc1Cl	.	0.1
CC1C(=O)C(C)C(c2ccc3c(c2)OCO3)NC1c1ccc2c(c1)OCO2 (stereo unspecified)	25	.
Cc1csc2nc(CSc3nnc4n3CCCCC4)cc(=O)n12	10	.
Clc1ccc(/C=N\n2cnnc2)c(Cl)c1	12	-2.1
CCOC(=O)c1oc2ccccc2c1NC(=O)c1ccc(S(=O)(=O)N(C)C)cc1	17	-0.2
O=C(NC(C(F)(F)F)C(F)(F)F)OC1CCCC1	5	2.5
CN(C)c1ccc(C(O)c2nnc(-c3ccccc3)o2)cc1 (stereo unspecified)	-8	.
CCCCc1cc(=O)oc2c(CN3CCCC3)c(O)c(Cl)cc12	4	0.2
Cc1ccc(NS(=O)(=O)c2ccc(NC(=O)CN3C(=O)c4cccc5cccc3c45)cc2)cc1	5	-0.1
COC(=O)C(C)Sc1cc(C)c2ccccc2n1 (stereo unspecified)	8	-0.2
Cc1c(C)c(C)c(I)c(C)c1C	.	-0.6
CC1=NN(c2nc3ccccc3[nH]2)C(=O)/C1=C/N(C)C	-8	5.3
O=C(c1ccc(CS(=O)c2ccccc2Cl)o1)N1CCc2ccccc21 (stereo unspecified)	25	.
CCCOc1ccc(Cc2c(O)nc(N)[nH]c2=O)cc1C	12	-0.2
CN(Cc1cccs1)S(=O)(=O)c1cn(C)c(=O)n(C)c1=O	0	.
COc1cccc2sc(NC(=O)c3ccc(S(=O)(=O)N(C)C)cc3)nc12	10	-0.9
Cc1nc2c3ccccc3n3c(CCCC(=O)NC4CCCCC4)nnc3n2n1	15	4.0

Looked up above.
COc1cccc2sc(NC(=O)c3ccc(S(=O)(=O)N(C)C)cc3)nc12 – MgrA DNA FP = -0.9
CN(Cc1cccs1)S(=O)(=O)c1cn(C)c(=O)n(C)c1=O – S aureus helic = 0
CC(=O)Oc1cc2c3c(c(=O)oc2cc1C)CCCC3 – S aureus helic = -14
